Compound activity (PubChem BioAssay)
Sfp PPTase inh: inhibitors of Bacillus subtilis Sfp phosphopantetheinyl transferase | Biochemical Sfp PPTase activity, qHTS | Potency, µM, inactives show max response, negative = inhibition, actives largely listed as inhibitors | AID 1490 | 3.5% of 310,000 active; active means well fitted inhibition curve with a large enough effect; inconclusive means small, poorly fitted or top-dose-only effect, or another doubt; inactive means no such curve, though single readings can be large or run the other way;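 further: the enzyme is Sfp with the accession as filed and its product quenches rhodamine fluorescence; potency means the concentration at half of the fitted maximal effect; 0% = enzyme reaction without inhibitor and -100% = no enzyme wells; top concentration of the series not given in the record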
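Buffer: 50 mM Hepes-Na pH 7.6, 10 mM MgCl2, 0.01% Nonidet P-40, 0.01% BSA. Enzyme 15 nM, pre-exposed to compound 15 min; substrates then added and fluorescence change tracked over 30 min.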
Menin MLL FP FL: menin-MLL binding inhibition, fluorescein peptide | AID 1766 | Fluorescence polarization, fluorescein-MLL peptide displacement from menin | 290,000 tested, under 10 active | FP activity change, % at 61.4 µM; inconclusive = falling polarisation curve, or a change in total fluorescence; inactive = total fluorescence flat and polarisation flat or rising; no compound was filed as active; the % refers to the polarisation; negative = inhibition;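 further: % of control where 0% means no effect; inhibitors lower the polarisation; unlabelled MLL peptide was the positive control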
gsp ag: agonists of gsp mutant (McCune-Albright syndrome) | gsp mutant cells, cAMP HTRF, 30 min; control for the full effect not named in the record | 0.13% of 340,000 active | Potency, µM (titrated, usually from 76.9 µM), without a hit: top-dose activation (cAMP increase), hits mostly activators; active = well fitted activation curve with a large enough effect; inconclusive = small, poorly fitted or top-dose-only effect, or another doubt; inactive = no such curve, though single readings can be large or run the other way; cell line not stated here;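 further: phosphodiesterase inhibitor Ro 20-1724 added with compounds to block cAMP breakdown; potency means the concentration at half of the fitted maximal effect; nearly all actives have a fitted effect of over 60% in size; about a fifth of the inactives were tested at one dose only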
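Cells in DMEM/10% FBS with G418 were pretreated with compounds in DMSO plus […] (300 uM stock) for 30 min at 37C. cAMP was measured by HTRF (cAMP-d2 plus anti-cAMP antibody-K) after 30 min at room temperature.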
TRPML1 blocker: inhibitors of human TRPML1 channel. Q9GZU1. TRPML1-inducible cells, Ca2+ dye fluorescence, FDSS; hits give low values; inhibition of EC80 agonist-evoked calcium signal. activity change, negative = inhibition, % (concentration not given with the values). 0.02% of 390,000 active; in the data active means activity change below about -50%; inconclusive means about -30% to -50%; inactive means above about -30%;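 further: stimulus is agonist 54-4 at its EC80 concentration; on the % scale 0 is the no-effect control and ±100 the full control effect; compound concentration not given in the record; the text of the record puts the active cut at -80%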
Target sequence (Q9GZU1 whole entry, looked up): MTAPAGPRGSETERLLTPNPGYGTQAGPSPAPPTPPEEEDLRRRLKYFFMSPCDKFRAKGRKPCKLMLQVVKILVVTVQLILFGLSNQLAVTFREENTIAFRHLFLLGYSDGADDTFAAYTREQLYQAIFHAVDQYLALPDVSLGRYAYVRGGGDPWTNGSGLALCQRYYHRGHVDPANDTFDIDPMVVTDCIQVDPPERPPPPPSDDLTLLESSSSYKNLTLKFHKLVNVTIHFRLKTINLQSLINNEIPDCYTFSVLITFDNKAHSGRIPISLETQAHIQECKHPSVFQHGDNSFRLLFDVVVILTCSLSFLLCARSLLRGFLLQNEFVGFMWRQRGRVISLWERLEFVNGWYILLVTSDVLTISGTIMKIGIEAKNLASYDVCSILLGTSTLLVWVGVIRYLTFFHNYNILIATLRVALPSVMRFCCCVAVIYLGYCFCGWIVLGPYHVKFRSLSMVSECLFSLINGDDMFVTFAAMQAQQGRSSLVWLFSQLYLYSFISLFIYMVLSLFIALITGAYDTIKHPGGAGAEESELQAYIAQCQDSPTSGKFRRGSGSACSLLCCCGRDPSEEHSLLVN
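Tet-induced TRPML1-DL cells loaded with Ca8 no-wash calcium dye were read kinetically on FDSS. Compound addition was followed by EC80 agonist 54-4 (4 uM final); inhibition was read over 110 s.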
ClpP mod: qHTS Assay for Activators of ClpP; purified B. subtilis ClpP, FRET peptide cleavage, 20 min; Potency, µM (titrated, usually from 57.5 µM), for the others: top-dose activity change, negative = active; 1.9% of 340,000 active; AID 651965, 2013; active = well fitted falling curve with a large enough effect; inconclusive = small, poorly fitted or top-dose-only effect; inactive = no such curve, though single readings can be large or run the other way; further: potency means the concentration at half of the fitted maximal effect; the source files actives as falling curves though it sought activators and does not explain the sign; nearly all actives have a fitted effect of over 65% in size; many hits overshoot -100%
Target sequence (P80244 whole entry, looked up): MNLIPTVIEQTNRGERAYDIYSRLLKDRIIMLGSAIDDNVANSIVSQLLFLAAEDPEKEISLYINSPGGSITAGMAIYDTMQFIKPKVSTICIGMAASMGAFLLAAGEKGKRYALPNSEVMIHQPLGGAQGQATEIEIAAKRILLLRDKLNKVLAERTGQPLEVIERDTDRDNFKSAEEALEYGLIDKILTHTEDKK
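Purified B. subtilis ClpP, 10 microg/mL final in Tris/HCl pH8 with KCl, BSA, glycerol and Tween-20, cleaved an Abz/nitrotyrosine-quenched decapeptide. Fluorescence (ex 320, em 430) was read at 0 and 20 min at room temperature. Delta was normalized to 5.8 microM ADEP and DMSO/no-enzyme controls.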
gsp antag: antagonists of gsp mutant (McCune-Albright syndrome). Potency, µM (highest dose often 76.9 µM), inactives show top-dose activity change, negative = inhibition, usual class: inhibitors. gsp-mutant cells, cAMP HTRF, 30 min; control for the full effect not named in the record. AID 624288. 0.4% of 340,000 active; active = falling curve of any shape with a large fitted effect; inconclusive = falling curve, mostly with a smaller effect; inactive = flat or rising curve; cell line not stated here;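 further: intracellular cAMP measured with PDE inhibitor Ro 20-1724 present during compound exposure; potency means the concentration at half of the fitted maximal effect; on the % scale 0 is the no-effect control and ±100 the full control effect; nearly all actives have a fitted effect of over 65% in size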
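HTRF cAMP measurement after 30 min RT detection following 30 min, 37C compound treatment alongside […] (added as 300 uM solution) in G418-selected cells seeded at 2000/well and grown 16–24 h.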
TRPV1 PAM: enhances activation of the human vanilloid receptor TRPV1. 0.02% of 320,000 active. Q8NER1. TRPV1-expressing cells, Fluo-8 calcium influx, capsaicin EC20 potentiation; host cell line not named in the record; control for the full effect not named in the record. potentiation, % at 8.33 µM; active means potentiation above 80%; inconclusive means 30% to 80%; inactive means below 30%; further: 0% is about no effect
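TRPV1-expressing cells were cultured overnight at 35.5C and loaded with Fluo-8 calcium dye for 40 to 90 min at room temperature. After a 10 s baseline, compound was added and calcium influx was read kinetically for 3 min (ex 480/em 520 nm).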
Numbers without * were called inactive; u = inconclusive; x = no result given; & = joins results of further samples; [ ] = remark or other dose. Compounds were not picked by outcome; overall some 4.9% were active at least once.

SMILES	Sfp PPTase inh	Menin MLL FP FL	gsp ag	TRPML1 blocker	ClpP mod	gsp antag	TRPV1 PAM
Cc1cc(C)c(-c2cc(NC(=O)COC(=O)c3ccc(CO)cc3)n(-c3ccccc3)n2)cc1C	u	0.4	-23.5%	-5.7	0.1%	u	-12.6
O=C(Nc1ccc(CN2CCOCC2)cc1)c1ccc(Br)cc1	6.0%	-3.0	-13.1%	36.9	-4.1%	1.6%	-14.7
O=C(NCc1ccco1)c1cc(S(=O)(=O)N2CCCC2)ccc1Cl	0.5%	-1.8	-0.3%	9.1	-3.2%	-17.7%	3.5
CS(=O)(=O)N1CCN(CC2CC3C=CC2C3)CC1 (configuration not stated)	2.4%	7.5	-19.7%	-6.1	1.1%	13.5%	17.7
CCOC(=O)c1cc(C(=O)OCC)c(=O)[nH]c1N1CCCCC1	9.0%	2.2	-38.8%[inhibitor]	9.4	0.1%	-6.4%	18.2
Cc1cc(C)cc(NC(=S)/C(=C(\[O-])c2ccc(Cl)cc2Cl)[n+]2ccccc2)c1	10.6%	2.6	u	x	2.8%	18.0%	2.2
Cc1ccc(Nc2nc(N)nc(CN3CCN(c4ccccc4F)CC3)n2)cc1	-7.5%	3.8	-1.2%	3.4	-0.7%	-4.9%	-5.9
Cc1ccc(NC(=O)Cn2nnc(C(=O)NCCc3ccccc3)c2N)cc1Cl	-2.3%	-1.2	-40.4%[inhibitor]	-0.3&22.1	-1.0%&2.1%	17.4%	2.0
O=C(NCc1ccccc1)C1Nc2ccc(OC(F)(F)F)cc2C2C=CCC12 (configuration not stated)	x	x	x	2.5	0.1%	-4.5%	x
Cc1cc(C)n2cc(CSC3=NCCS3)nc2n1	-15.8%	-2.1	3.4%	-3.9	38.9%	8.4%	0.0
CCC(=O)N1CCN(C(=O)CC)C1c1ccccc1	8.9%	-1.5	-8.8%	-5.6	1.6%	-8.7%	-1.6
O[C@@H]1C[C@H](c2ccc(Cl)cc2)N(Cc2cccs2)C[C@H]1n1cc(C2CC2)nn1	x	x	5.2%	17.6	0.8%	x	x
Cc1ccc(N2CC(C(=O)OCC(=O)c3ccc([N+](=O)[O-])cc3)CC2=O)cc1 (configuration not stated)	-6.2%	0.2	-2.1%[15.4 µM]	-4.3	x	6.4%	2.4
C=CCc1ccccc1OCC(O)CN(C(C)C)C(C)C (configuration not stated)	6.2%	3.2	3.4%	-1.4	0.0%	6.0%	-10.7
COc1ccccc1NC(=O)N1CCc2c([nH]c3ccccc23)C1C(F)(F)F (configuration not stated)	5.3%	3.8	-1.4%[15.4 µM]	37.4	-1.2%	-6.4%	-5.6
CC1(C)Cc2c(C#N)c(NCCN3CCOCC3)nc(-c3ccco3)c2CO1	-21.4%	-0.7	2.4%	5.8	31.6µM*	-1.4%	-10.2
Cc1cc(N2C(=O)C(O)=C(C(=O)c3cccs3)C2c2ccc(F)cc2)no1 (configuration not stated)	7.7%	0.4	42.1%[15.4 µM]	0.9	0.2%	-14.9%	-5.6
C[C@]12C=CC(=O)C=C1CC[C@@H]1C2[C@@H](O)C[C@@]2(C)C1CC[C@]2(O)C(=O)COC(=O)CCC(=O)O (some centres not stated)	8.3%	4.8	11.4%[15.4 µM]	6.5	1.3%	10.4%	8.4
CCn1c(O)c2ccc(C(=O)N=NC(=O)c3ccccc3)cc2c1O	12.6%	1.0	1.5%[15.4 µM]	1.9	-2.0%	9.8%	-2.1
COc1cc2c(cc1OC)CN(C(=O)CCC(=O)c1ccc(F)cc1)CC2	x	x	-1.1%	32.4	-9.5%	2.7%	x
CCc1ccccc1N(CC)C(=O)c1cn(CC)c(=O)c2cc(OC)c(OC)cc12	7.6%	0.5	-27.4%	9.7	-14.0%	1.9%	-13.6
CCOc1ccccc1NC(=O)[C@@H](NC(=O)c1ccccc1F)C(C)C	18.2%	-6.4	21.0%	11.8	x	9.4%	-10.4
Cc1cccc(N(Cc2ccccc2)C(=O)c2ccc(CS(C)(=O)=O)cc2)c1	1.1%	x	18.3%	-0.4	0.1%	8.9%	1.0
CC(NC(=O)CSc1cccc(C(F)(F)F)c1)c1ccccc1 (configuration not stated)	6.0%	-2.9	-11.8%	10.4	-0.4%	4.8%	-17.0
COc1ccc(-c2nnn(CC(=O)N(CCCN3CCOCC3)C(C(=O)NC3CCCC3)c3ccco3)n2)cc1 (configuration not stated)	23.5%	0.0	4.5%	-6.4	x	-17.4%	-3.1
O=C(NCc1ccc2c(c1)OCO2)c1cccs1	2.9%	3.5	0.1%	-3.9	-0.4%	3.5%	-11.1
COCC(C)NC(=O)CSc1nc2nn(-c3ccccc3)c(=O)c-2c2n1CCCCC2 (configuration not stated)	11.7%	-5.9	5.3%[15.4 µM]	-13.2	-2.2%	-13.4%	5.8
COCc1nnc(NC(=O)CCc2ccc(OC)cc2)s1	5.9%	-3.5	-9.7%[15.4 µM]	3.7	u	8.9%	3.4
CCCCNC(=O)n1c(=O)oc2ccc(Cl)cc21	4.2%	1.1	24.9%	-2.0	-0.6%	-0.6%	u
Cc1ccc(S(=O)(=O)NCC(=O)N(CC(=O)NCc2ccccc2)CC2CCCO2)cc1 (configuration not stated)	8.5%	4.3	3.1%	24.3	-3.5%	-3.1%	2.4
Cn1c2ccccc2c2nnc(SCC(=O)Nc3cccc(C(=O)O)c3)nc21	14.5%	0.9	14.1µM*	-14.0	0.0%	-11.8%	19.8
Cn1cccc/c1=N\c1cccc[n+]1C	-5.1%	3.7	-2.9%	-1.1	-13.6%	-0.2%	-7.9
CCOC(=O)c1sc(NC(=O)CSc2nnc(Cc3ccccc3)o2)c(C(=O)OCC)c1C	14.8%	0.2	u	4.7	-0.2%	-19.2%	21.7
O=C(CSc1nnc2ccc(-c3ccncc3)nn12)N1CCCCC1	8.6%	2.8	7.0%	x	-0.1%	-0.5%	15.4
COC(=O)c1cccc(C(=O)N2CCC(CCC(=O)NCc3ccc(F)cc3)CC2)c1	23.8%	-1.7	-29.1%	1.2	1.8%	-16.6%	0.6
COc1cc(/C=C/C(=O)O)ccc1OCc1cnc(Cl)s1	2.7%	-1.0	-5.7%[15.4 µM]	-2.1	x	-14.0%	-1.4
O=C(CNC(=O)c1ccncc1)N/N=C/c1ccccn1	56.2µM*	-2.5	u	-1.7	-2.1%	10.3%	4.8
CCOC(=O)C1C(=O)NC(c2ccccc2)=NC1c1ccc(OC)cc1 (configuration not stated)	8.7%	-0.2	-34.4%[inhibitor]	1.7	x	13.2%	16.6
O=C(O)c1ccccc1Cc1ccc2c(c1)CCCC2	x	x	-22.2%	4.9	x	-1.5%	x
CC(C)(C)OC(=O)C[C@@H]1C/C=C\C[C@@H](CC(=O)N(CCO)Cc2ccccc2)C(=O)N[C@H](Cc2c[nH]c3ccccc23)COC1=O	x	x	x	-3.4	-2.1%	-8.0%	x
CC(C)Nc1nc(NC(C)C)nc(Oc2ccc(/C=N/O)cc2)n1	6.9%	-5.6	-32.3%[inhibitor]	-2.0	1.4%	-12.6%	u
CCCCCOc1ccccc1C(=O)NCCCC(=O)O	15.2%	5.4	5.6%	-0.4	-4.7%	-9.1%	u
O=c1nc2ccccc2c2n1CC(CN1CCN(c3cccc(Cl)c3)CC1)N2 (configuration not stated)	6.0%	4.3	0.7%	-8.1	-7.5%	4.4%	10.2
O=CN/C=C/c1cccc(O)c1	x	x	25.5%	1.2	-0.6%	7.2%	x
Cc1cccc(N2CC(C(=O)Nc3nccs3)CC2=O)c1C (configuration not stated)	18.1%	1.3	-0.2%[15.4 µM]	9.2	x	11.7%	0.0
O=C(CC1CCCCC1)Nc1ncn[nH]1	9.1%	-0.3	0.1%	1.7	-1.6%	-3.9%	6.6
Cc1ccc(-c2nnc(-c3ccccc3Br)o2)cc1	8.9%	3.8	-33.0%	10.5	x	-4.8%	-3.0
COc1cc(Cl)ccc1OCc1cc(C(=O)N2CCN(C3CCCCC3)CC2)no1	x	x	-40.2%[inhibitor]	-0.9	-0.4%	x	x
CCOC(=O)C(NC(=O)c1ccccc1)(OCc1ccc(F)cc1)C(F)(F)F (configuration not stated)	9.8%	3.7	-2.2%[15.4 µM]	20.4	-12.7%	10.7%	-0.5
Cc1ccc2c(c1)C1CC(C)(O2)N(c2cccc(C(=O)N3CCN(c4ccccn4)CC3)c2)C(=O)N1 (configuration not stated)	13.3%	x	-59.9%[inhibitor]	-2.2	-6.2%	u	-7.3
C/C(CC(=O)Nc1ccc(N(C)C)cc1)=N\NC(=O)c1ccc([N+](=O)[O-])cc1	-13.1%	-0.5	-11.4%	3.9	x	-21.1%	-2.1
CN1C(=O)/C(=C/C=C2\SCCN2C)SC1=S	-23.9%	u	x	x	x	x	-3.9
Cc1cccc(C(=O)NC2CCN(CC(=O)N3CCOCC3)CC2)c1	8.5%	2.3	-9.7%	-4.5	-0.3%	8.7%	10.9
CCCC1(c2ccccc2)NC(=O)N(CC(=O)Nc2cc(C)ccc2OC)C1=O (configuration not stated)	8.6%	4.1	-3.0%[15.4 µM]	-15.6	x	u	-2.7
CC(=O)NC(CCS(C)(=O)=O)C(=O)Nc1cccc2ccccc12 (configuration not stated)	22.4%	-1.6	-87.7%[inhibitor]	17.2	-1.3%	5.5%	26.8
COc1ccc(C=CC(=O)c2c(OC)cc(OC)c(OC)c2O)cc1	x	x	-1.1%[15.4 µM]	-0.9	0.5%	6.3%	x
C=C(C)c1nc2cc(OC)c(OC)cc2c(=O)o1	6.5%	3.5	12.0%	9.5	-2.2%	-13.6%	9.1
COc1ccc(N(CC(C)C)S(=O)(=O)c2nnc(NC(=O)c3ccco3)s2)cc1	15.6%	x	13.6%	17.0&1.1	-1.8%&-5.0%	-22.1%	14.2
